# Ecoli growth – inhibitors of Escherichia coli growth. OD600, 23 h; stronger effect = lower value. OD600 absorbance (concentration not given with the values). 0.21% of 330,000 active;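 active = OD600 absorbance below the run mean of sample wells minus 3.6 SD, in any replicate, cut at about 0.56 in these data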;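 note: stock transfer was 300 nL into about 60 µL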
# MLL AF4-AF9 inh – blocks AF4 peptide binding to human AF9; 0.47% of 350,000 active; inhibition, % at 10 µM; AlphaScreen, biotin-AF4 peptide binding to FLAG-AF9; P42568;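 active = every replicate reaching a set inhibition limit, whatever the replicate mean, cut at about 25% in these data; inconclusive = mean inhibition reaches that limit but some replicates miss it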;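 note: 0% = plate neutral control median and 100% = total signal loss; the record names both 10 and 1 µM as test concentration; the first replicate is given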
# Target sequence (P42568 whole entry, looked up): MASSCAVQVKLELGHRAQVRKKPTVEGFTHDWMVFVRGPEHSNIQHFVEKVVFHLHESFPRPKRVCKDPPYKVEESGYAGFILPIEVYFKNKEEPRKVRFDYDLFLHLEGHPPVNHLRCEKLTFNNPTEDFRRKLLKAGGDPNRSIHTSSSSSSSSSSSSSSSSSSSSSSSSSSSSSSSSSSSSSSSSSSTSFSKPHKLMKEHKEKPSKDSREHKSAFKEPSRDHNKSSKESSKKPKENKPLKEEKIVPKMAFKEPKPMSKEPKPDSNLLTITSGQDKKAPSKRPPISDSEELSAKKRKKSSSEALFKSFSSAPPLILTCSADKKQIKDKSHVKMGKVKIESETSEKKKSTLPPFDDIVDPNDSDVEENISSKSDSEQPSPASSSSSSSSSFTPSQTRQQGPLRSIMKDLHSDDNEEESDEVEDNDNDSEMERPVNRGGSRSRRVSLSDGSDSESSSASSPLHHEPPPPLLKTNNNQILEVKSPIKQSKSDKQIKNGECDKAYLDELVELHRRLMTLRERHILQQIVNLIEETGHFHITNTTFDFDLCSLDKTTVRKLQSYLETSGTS
# FGF22 binding – binders of recombinant human FGF22 by thermal shift | Q9HCT0 | SYPRO orange fluorescence; percent of sucrose octasulfate shift, DMSO zero | calls only at 9.99 µM | 1.5% of 340,000 active | AID 651658;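 active = melting point raised past a set limit in the mean and every replicate; inconclusive = no clear call; three in four hits are not shown here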
# Target sequence (Q9HCT0 whole entry, looked up): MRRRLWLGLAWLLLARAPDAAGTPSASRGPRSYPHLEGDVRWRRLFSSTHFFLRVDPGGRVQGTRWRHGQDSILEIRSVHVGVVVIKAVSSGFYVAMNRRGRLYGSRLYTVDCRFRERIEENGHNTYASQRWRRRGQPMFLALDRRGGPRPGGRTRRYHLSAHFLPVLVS
# rRNA inh HTS – inhibitors of bacterial rRNA selective over humanized ribosomes; AID 720706; E. coli WT GFP vs humanized-ribosome RFP mutants, fluorescence, 24 h; stronger effect = lower value; DMSO median 0, no signal -100; GFP signal change (wild-type ribosome), % (concentration not given with the values); 1.6% of 350,000 active;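 active = significant combined selectivity score with lowered wild-type GFP, culture density cut under 30%, mutant RFP and density less affected; inactive = any of these conditions unmet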; note: one replicate is shown; some compounds called inactive have numbers as strong as hits
# Vif TR-FRET – HIV-1 Vif–A3G interaction blockers – biochemical, TR-FRET, GST-Vif 1-94, biotin-A3G peptide, dose response retest, primary screen (AID 1117319); TR-FRET GST-Vif / biotin-A3G peptide binding; higher % means a stronger effect; test concentration not given here; strong numbers were not always called active; one-dose inhibition, %; IC50 in µM for titrated hits; 0.57% of 260,000 active;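 active = above the screen mean plus three standard deviations and confirmed in dose response; inconclusive = results disagree or hit not tested in dose response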;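 note: Vif residues 1-94 fused to GST binding biotinylated APOBEC3G peptide 110-148; 0% = full assay without inhibitor and 100% = GST in place of GST-Vif; retest series ran down from 100 µM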
# HNF4A DNA FP – change in binding of human HNF4 alpha to DNA; HNF4a-FITC DNA binding, fluorescence polarization, 1 h; AID 1224865; P41235; activity change, % at 10 µM; 0.3% of 360,000 active; in the data active = activity change above about 30%, passing the limit was not always enough;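 note: controls were the assay level and a saturating level of protein; the project sought stronger binding though the title names inhibitors; some compounds called inactive have numbers as strong as hits; positive values seem to mean higher polarization but the record does not say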
# ALR inh – human ALR oxidase inhibition via reduced H2O2. P55789. purified ALR, DTT oxidation, H2O2 HRP-luminol luminescence. inhibition, % (test concentration not listed). 3.8% of 290,000 active. AID 485317;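 active = mean and each replicate at 75% or more; inconclusive = only one of the two met; inactive = neither met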;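 note: stock transfer was 7.5 nL into about 7.5 µL; 0% = neutral wells and 100% = wells with inactivated enzyme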
# Target sequence (P55789 whole entry, looked up): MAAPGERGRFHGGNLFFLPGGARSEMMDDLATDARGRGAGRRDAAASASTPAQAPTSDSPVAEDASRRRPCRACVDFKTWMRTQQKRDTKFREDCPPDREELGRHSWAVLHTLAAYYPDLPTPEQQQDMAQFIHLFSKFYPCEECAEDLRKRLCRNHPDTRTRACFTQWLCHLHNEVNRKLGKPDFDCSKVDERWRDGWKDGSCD
# rRNA inh HTS OD600 – further read-out of rRNA inh HTS, marked with its call; OD600 change, %; measured here: OD600 growth;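 optical density of the mix in the first replicate; 0 = DMSO median and -100 = no signal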
# rRNA inh HTS RFP – recorded beside rRNA inh HTS, whose call it bears; RFP signal change, %; measured here: RFP humanized mutant strains;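 first replicate; 0 = DMSO median and -100 = no signal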
# Numbers without * were called inactive; i = inactive; ? = inconclusive; . = no result given. Some of the compounds tested (hit frequency here may not be typical).
Compound	Ecoli growth	MLL AF4-AF9 inh	FGF22 binding	rRNA inh HTS	rRNA inh HTS OD600	rRNA inh HTS RFP	Vif TR-FRET	HNF4A DNA FP	ALR inh
O=C(C[C@H]1CC[C@H]2[C@@H](COC[C@H](O)CN2Cc2cccc(Cl)c2)O1)Nc1nccs1	.	2.8	i	-3	-6	2.5	.	.	.
Cc1oc(-c2ccccc2F)nc1CS(=O)(=O)CC(=O)N1CCN(c2ccccc2)CC1	0.79	-4.6	i	-6	-15	-10	4%	2.4	21
O=C(Nc1cccc([N+](=O)[O-])c1)c1cnccn1	0.72	3.9	i	6	-2	-3.0	.	-0.9	-3
CC(NS(=O)(=O)c1ccccc1)C(=O)NCc1ccco1 (stereo not drawn)	0.69	1.8	i	8	1	-2.1	13%	-2.2	-12
CC(NC(=O)COC(=O)CN1C(=O)C2CCCCC2C1=O)c1ccccc1 (stereo not drawn)	0.72	-2.2	i	12	14	-0.6	-5%	-3.1	-9
CNc1ccc(/C=C/C(=O)c2ccc3c(c2)OCCO3)cc1[N+](=O)[O-]	0.66	.	.	.	.	.	-4%	6.9	.
COc1ccc(C2CC(C)(c3ccc(OC)cc3)Nc3ccccc3N2)cc1 (stereo not drawn)	0.7	15	i	.	.	.	7%	-2.9	?
Cc1nc2c(sc3nc4c(cc32)COC(C)(C)C4)c(=O)n1Cc1ccccc1	0.75	.	.	.	.	.	-12%	1.2	-14
C[C@@H]1CN([C@H](C)CO)C(=O)c2cc(NC(=O)Cc3ccccc3)ccc2O[C@H]1CN(C)C(=O)NC1CCCCC1	.	-2.6	i	0	-1	-1.6	.	.	.
OC1CN=C2CCCc3c2n(c2ccc(Cl)cc32)C1 (stereo not drawn)	0.65	.	.	.	.	.	26%	4.7	47
CNC[C@H]1Oc2c(NS(=O)(=O)c3ccc(Cl)cc3)cccc2C(=O)N([C@H](C)CO)C[C@H]1C	.	-2.1	i	1	5	-2.3	.	.	.
C[C@@H]1CN([C@@H](C)CO)C(=O)Cc2cc(NC(=O)C3CCCCC3)ccc2O[C@H]1CN(C)C(=O)Nc1ccc(C(F)(F)F)cc1	.	-0.9	i	-4	-9	-1.0	.	.	.
Cc1onc(-c2c(F)cccc2Cl)c1C(=O)Nc1cc2cc([N+](=O)[O-])ccc2oc1=O	.	-4.2	i	1	8	1.0	.	-0.5	.
CCCN(CCC)S(=O)(=O)c1ccc(NS(=O)(=O)c2ccc(F)cc2)cc1	0.71	.	.	.	.	.	13%	1.0	-3
CC1Cc2ccccc2N1CC(=O)Nc1ccc(Cl)c(S(=O)(=O)N(C)C)c1 (stereo not drawn)	0.73	4.9	i	12	-2	5.6	29%	2.1	2
COc1ccc(NC2=C3CC(C)CC=C3N(c3ccc(OC)cc3)C2=O)cc1 (stereo not drawn)	0.74	5.0	i	3	-1	-2.2	11%	3.3	66
O=C1CCCN1CCCNC(=S)Nc1ccccc1Cl	0.72	-1.9	.	21	16	2.3	5%	4.2	-4
CC1CCCC(C)N1/N=C/C=C/c1ccccc1[N+](=O)[O-] (stereo not drawn)	.	3.4	i	-5	-3	0.8	-2%	1.3	.
CC1CCC(NC(=O)CCNC(=O)c2ccc(Br)cc2)CC1 (stereo not drawn)	0.65	-23	i	9	13	-0.4	2%	3.2	-2
O=C1c2ccc([N+](=O)[O-])cc2C(=O)N1c1ccc([N+](=O)[O-])cn1	0.66	-2.3	i	3	10	0.5	.	4.9	-12
O=C(O)CC(NC(=O)c1cccc([N+](=O)[O-])c1)c1ccc2c(c1)OCO2 (stereo not drawn)	0.7	-1.6	.	8	7	-1.3	-2%	0.6	-7
C=CCNC(=S)NNC(=O)c1ccc2c(c1)OCO2	0.73	.	.	1	3	-1.6	12%	-1.4	69
COc1cc(OC)cc(-c2nc3cc(C)ccc3o2)c1	0.72	.	.	.	.	.	-8%	-1.4	.
Cc1ccc(C)c(N2CC(C(=O)Nc3nccs3)CC2=O)c1 (stereo not drawn)	0.6	0.7	i	5	7	-3.1	.	0.1	5
COc1cccc(N2CCN(C(=O)c3oc4ccccc4c3NC(=O)CCc3cc(OC)no3)CC2)c1	0.64	5.4	i	-3	-19	0.7	.	0.5	3
CCN(Cc1ccccc1)C(=O)COC(=O)Cc1c[nH]c2ccccc12	0.71	2.9	i	-12	-8	-4.1	-8%	-2.8	.
CCOC(=O)c1c(-c2ccc(C)cc2)csc1/N=C(\C)C1=C(O)c2ccccc2C1=O	.	1.4	i	.	.	.	?	3.3	2
COc1ccc(NC(=O)CSc2nc(=O)n(CCN3CCOCC3)c3c2CCC3)cc1	0.71	2.1	i	7	1	0.0	-3%	-1.4	98*
CCc1nnc(NC(=O)c2ccc(COc3cccc(C)c3)o2)s1	0.69	-3.6	i	1	1	-1.1	.	-2.5	.
O=C(c1cc2sccc2n1Cc1ccc(F)cc1)N1CCCc2ccccc21	0.69	.	.	.	.	.	3%	-0.8	-11
COc1ccc(-c2cc(C(=O)Nc3cc(Br)ccc3O)no2)cc1	0.7	-3.1	i	13	5	16	6%	25	-2
Cc1ccccc1NC(=O)Cc1nc(COC(=O)c2ccccn2)cs1	0.64	?	i	0	9	6.8	-1%	-0.2	-1
Cc1ccc2nc(C)cc(C(=O)OCC(=O)Nc3cccnc3Cl)c2c1	0.69	-1.1	i	-14	-18	-2.4	-11%	0.1	38
O=C(C[C@@H]1C=C[C@@H](NC(=O)C2CCC2)[C@@H](CO)O1)NCc1ccncc1	.	-0.1	i	-2	-8	-0.9	.	.	.
Cc1ccccc1Cn1cnc2c(cnn2C(C)(C)C)c1=O	0.69	.	.	.	.	.	0%	-2.4	-12
Cc1cc(C(=O)OCC(=O)NCc2cccs2)ccc1[N+](=O)[O-]	0.71	-2.2	i	-5	4	-3.0	-2%	3.4	-1
CCn1c(CNC(=O)c2cccc(C)c2)nnc1SCC(=O)Nc1nnc(C)s1	0.7	-1.5	i	8	6	-0.9	-8%	0.9	.
C(=N\Nc1ncnc2ccccc12)/c1ccccc1	.	6.0	.	-9	-3	68	.	1.1	97*
COCC(=O)N(C)C[C@H]1[C@H](c2ccc(-c3cccnc3)cc2)[C@@H](CO)N1C(C)=O	.	-1.2	i	0	2	-4.7	.	.	.
Cc1ccc(-n2c(C)c(C)c3c(NCCCO)ncnc32)cc1	0.65	7.9	i	2	-12	0.7	.	-0.1	19
CC(C)NC(=O)Nc1ccc2c(c1)C(=O)N(C)[C@@H]1CC[C@H](CC(=O)NCc3ccc(F)cc3)O[C@@H]1CO2	.	-1.6	i	1	3	-0.3	.	.	.
CCNC(=O)Nc1ccc2c(c1)C(=O)N(C)[C@H]1CC[C@H](CC(=O)NC3CCCCC3)O[C@H]1CO2	.	-3.1	i	4	7	-0.9	.	.	.
Cc1ccc(SCC(=O)Nc2ccc(N3CCN(C)CC3)c(F)c2)cc1	0.67	.	.	.	.	.	9%	0.8	-8
Cc1ccc(NC(=O)CSc2ccc(-c3ccc(-n4cccn4)cc3)nn2)c(C)c1	0.7	-4.9	i	2	1	-4.2	.	3.7	-2
CC(Oc1ccc(Cl)cc1Cl)C(=O)NC(Cc1ccccc1)C(=O)O (stereo not drawn)	0.68	-0.1	i	-9	-13	-2.4	-8%	6.0	.

# Another view of part of the listing above:
# Second line of a record: Ecoli growth, MLL AF4-AF9 inh, FGF22 binding, rRNA inh HTS, rRNA inh HTS OD600, rRNA inh HTS RFP, Vif TR-FRET, HNF4A DNA FP, ALR inh
> COCC(=O)N(C)C[C@H]1[C@H](c2ccc(-c3cccnc3)cc2)[C@@H](CO)N1C(C)=O
 : ., -1.2, i, 0, 2, -4.7, ., ., .
> Cc1ccc(-n2c(C)c(C)c3c(NCCCO)ncnc32)cc1
 : 0.65, 7.9, i, 2, -12, 0.7, ., -0.1, 19
> CC(C)NC(=O)Nc1ccc2c(c1)C(=O)N(C)[C@@H]1CC[C@H](CC(=O)NCc3ccc(F)cc3)O[C@@H]1CO2
 : ., -1.6, i, 1, 3, -0.3, ., ., .

# Carrying on:
Compound	Ecoli growth	MLL AF4-AF9 inh	FGF22 binding	rRNA inh HTS	rRNA inh HTS OD600	rRNA inh HTS RFP	Vif TR-FRET	HNF4A DNA FP	ALR inh
O=C(COC(=O)c1cccs1)Nc1nc(-c2ccccc2)cs1	0.68	1.5	i	-3	-7	-11	.	1.3	88*
COc1ccccc1CN1CCN(Cc2nc(-c3ccccc3)no2)CC1	0.62	-16	i	9	-2	0.4	13%	2.5	-8
CN(C)CCNC(=O)COc1cccc(Cl)c1	0.72	.	.	.	.	.	?	-1.0	-8
COc1ccc(/C=C2\SC(=O)N(CCC(=O)NC3CCS(=O)(=O)C3)C2=O)cc1 (stereo not drawn)	0.65	-5.1	i	1	-7	-5.2	.	1.3	-3
Cc1ccc(SCC(=O)N2CCCC2)cc1	0.69	.	.	.	.	.	9%	-1.8	.
COc1ccc(NC(=O)C2CCCN2C(=O)NCc2ccccc2)cc1 (stereo not drawn)	0.7	-11	i	5	15	-0.6	.	-4.8	1
CC(C)Oc1ccccc1-c1cc(C(=O)N/N=C/c2cccnc2)c2ccccc2n1	.	2.2	i	-7	-15	-0.6	-4%	0.1	-4
COC(=O)c1ccc(CSc2nc3c(cnn3-c3ccccc3)c(=O)[nH]2)o1	0.69	-37	i	0	-4	1.1	-4%	0.2	-7
COc1ccc(C(C(=O)NC2CCCCC2)N(C(=O)CCl)c2ccc(Cl)cc2)cc1 (stereo not drawn)	0.66	.	.	.	.	.	.	1.6	-4
OC(CN1CCCCC1)CN(c1ccccc1)c1ccccc1 (stereo not drawn)	0.78	.	.	.	.	.	10%	1.9	98*
COc1ccc(NC(=O)c2ccc(C(=O)c3cc(OC)ccc3OC)cc2)cc1	0.73	1.6	i	4	1	3.1	-27%	-0.9	0
CCCCN1C(N)=NC[C@@H]1CC1CCCCC1	.	14	i	-54	-80	-21	.	-3.0	98*
Cc1ccc(N(NC(=O)C(C)(C)O)C(=O)c2ccccc2)cc1C	0.7	.	.	.	.	.	-5%	1.1	1
O=C(COc1ccc2ccccc2c1)N1CCN(C(=O)c2cccnc2)CC1	0.7	.	.	.	.	.	23%	-2.9	-37
COCCn1cnnc1SCC(=O)Nc1cccc(S(=O)(=O)N2CCCCC2)c1	0.67	-1.0	i	2	6	-0.2	-7%	2.1	-6
Cc1ccc(C(=O)NCC(=O)OCCCn2c(=O)[nH]c3ccccc32)cc1C	.	-1.9	i	-4	7	1.8	.	2.2	.
COc1ccc(C(=O)N2CCN(S(=O)(=O)c3ccc(Cl)cc3)CC2)cc1OC	0.66	.	.	.	.	.	-3%	-3.6	-8
COc1cc(CN2CCN(c3ccccc3C)CC2)cc([N+](=O)[O-])c1O	0.73	.	.	.	.	.	9%	1.9	4
C[C@H]1CCCCO[C@H](CN(C)CC2CC2)[C@@H](C)CN([C@@H](C)CO)C(=O)c2cc(NS(=O)(=O)c3ccccc3)ccc2O1	.	3.9	i	5	8	-2.3	.	.	.
C[C@@H]1CN([C@@H](C)CO)C(=O)Cc2cc(NC(=O)Nc3cccc4ccccc34)ccc2O[C@@H]1CN(C)C(=O)Nc1cccc2ccccc12	.	-2.7	i	6	3	3.0	.	.	.
O=C(COC(=O)c1ccc(Br)o1)Nc1cccc(S(=O)(=O)N2CCCCCC2)c1	0.72	.	.	.	.	.	1%	-1.9	-9
COC(=O)c1c(-c2ccccc2)oc2c1C(OCCO)CCC2 (stereo not drawn)	.	1.0	i	-1	-9	-2.0	.	-6.2	.
